Marburg entry inh = qHTS for inhibitors of binding or entry into cells for Marburg Virus; hit rate 1.8% among 300,000; Potency, µM (highest dose often 37.8 µM), for the others: at the top dose activity change, negative = inhibition, actives largely listed as inhibitors; Marburg virus pseudotyped entry inhibition, cell reporter; control for the full effect not named in the record; about a third of the inactives were read at about 46 µM; active = well fitted inhibition curve with a large enough effect; inconclusive = small, poorly fitted or top-dose-only effect, or effect the other way; inactive = flat fitted curve, though single readings scatter; tested in HEK293 cells; about a fifth of its hits are not listed in these tables; also: % is scaled to controls: 0 for no effect and ±100 for the full control effect; luciferase read-out
RE007 growth inh = qHTS Assay for Inhibitors of the HIV-1 protein Vpr; S. pombe RE007 Vpr strain, BacTiter-Glo ATP luminescence, 24 h; control for the full effect not named in the record; Potency, µM (titrated, usually from 92.2 µM), inactives show top-dose activity change, negative = less growth; hit rate 0.21% among 360,000; active = well fitted falling curve with a large enough effect; inconclusive = small, poorly fitted or top-dose-only effect; inactive = no such curve, though single readings can be large or run the other way;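 also: % is scaled to controls: 0 for no effect and ±100 for the full control effect; nearly all actives have a fitted effect of over 50% in size; the assay follows cell death caused by Vpr and the record does not say whether a fall means rescue or toxicity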
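Fission yeast RE007 carrying one integrated HIV-1 vpr copy, seeded at OD 0.01 in PMG+AL medium with 23 nL pinned compound. Grown 24 h at 30 degrees; viability read by BacTiter-Glo luminescence after 5 min.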
NS1 inh = qHTS Assay for Inhibitors of Influenza NS1 Protein Function | S. cerevisiae slowed by influenza A NS1, growth recovery by OD600 | Potency, µM (top dose mostly 46.1 µM), for inactives: at the top dose activity, positive = more growth | hit rate 0.4% among 270,000; active means well fitted rising curve with a large enough effect; inconclusive means small, poorly fitted or top-dose-only effect; inactive means no such curve, though single readings can be large or run the other way; also: nearly all actives have a fitted effect of over 50% in size
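S. cerevisiae expressing influenza A NS1, grown in glucose, washed, then diluted 1:100 into pH 6.0 -URA galactose medium with 23 nl compound. Growth recovery read as OD600; NS1-free strain serves as control.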
Cruzain inh Det = qHTS Assay for Promiscuous and Specific Inhibitors of Cruzain (with detergent) | Cruzipain (Trypanosoma cruzi), P25779 | purified cruzain, Z-FR-AMC fluorescence, 0.01% Triton | Potency, µM, for the others: max response, negative = inhibition, usual class: inhibitors | hit rate 0.43% among 200,000 | AID 1478, 2009;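 also: plate controls were neutral wells for no effect and buffer without enzyme for full effect; nearly all actives have a fitted effect of over 40% in size; top concentration of the series not given in the record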
Target sequence (P25779 123-467 limits assumed): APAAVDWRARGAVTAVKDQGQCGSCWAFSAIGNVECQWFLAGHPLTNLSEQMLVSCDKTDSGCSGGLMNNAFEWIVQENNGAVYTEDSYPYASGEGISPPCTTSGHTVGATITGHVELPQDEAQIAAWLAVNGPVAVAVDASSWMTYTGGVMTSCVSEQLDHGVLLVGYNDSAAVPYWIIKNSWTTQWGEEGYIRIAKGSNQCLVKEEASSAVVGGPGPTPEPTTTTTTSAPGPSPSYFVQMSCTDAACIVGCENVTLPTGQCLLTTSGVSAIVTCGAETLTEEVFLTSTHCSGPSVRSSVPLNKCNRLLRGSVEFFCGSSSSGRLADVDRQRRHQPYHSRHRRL
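In this qHTS format, compounds are incubated with 1.5 nM cruzain for 15 min at room temperature before 2 uM Z-FR-AMC is added. Release of AMC is followed at 360/450 nm, and progress is taken as the 60 s fluorescence difference.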
2A StopGo = High Throughput Screening for Foot and Mouth Disease Virus Antivirals; AID 1159524, 2015; human cells with a luciferase reporter of 2A StopGo recoding; control for the full effect not named in the record; hit rate 1.2% among 410,000; Potency, µM (highest dose often 57.9 µM), for the others: top-dose signal change, negative = less light; active = well fitted falling curve with a large enough effect; inconclusive = small, poorly fitted or top-dose-only effect; inactive = no such curve, though single readings can be large or run the other way; tested in HEK293T cells; also: % is scaled to controls: 0 for no effect and ±100 for the full control effect; nearly all actives have a fitted effect of over 45% in size; luciferase light after 4 h
LASV entry inh = qHTS for Inhibitors of binding or entry into cells for Lassa Virus; Lassa virus pseudotype entry inhibition, cell reporter; control for the full effect not named in the record; Potency, µM (titrated, usually from 37.9 µM), without a hit: at the top dose activity change, negative = inhibition, actives largely listed as inhibitors; hit rate 1.2% among 300,000; AID 540256, 2011; active means well fitted inhibition curve with a large enough effect; inconclusive means small, poorly fitted or top-dose-only effect, or effect the other way; inactive means flat fitted curve, though single readings scatter; tested in HEK293 cells; also: % is scaled to controls: 0 for no effect and ±100 for the full control effect; nearly all actives have a fitted effect of over 50% in size; luciferase read-out
SARS PLpro yeast = qHTS of Yeast-based Assay for SARS-CoV PLP; S. cerevisiae expressing SARS-CoV PLpro, growth rescue; control for the full effect not named in the record; Potency, µM (highest dose often 32.9 µM), for the others: at the top dose activity, positive = growth rescue; hit rate 0.19% among 330,000; AID 485353, 2010; active means well fitted rising curve with a large enough effect; inconclusive means small, poorly fitted or top-dose-only effect; inactive means no such curve, though single readings can be large or run the other way; also: 0% is about no effect; nearly all actives have a fitted effect of over 55% in size; growth read by luminescence after 48 h
Cruzain noTriton = qHTS Assay for Promiscuous and Specific Inhibitors of Cruzain (without detergent) | purified cruzain, Z-FR-AMC fluorescence, no detergent | hit rate 2.3% among 200,000 | AID 1476, 2009 | Potency, µM, inactives show max response, negative = inhibition, hits mostly inhibitors | Cruzipain (Trypanosoma cruzi), P25779;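 also: plate controls were enzyme without inhibitor for no effect and buffer without enzyme for full effect; nearly all actives have a fitted effect of over 40% in size; top concentration of the series not given in the record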
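Purified cruzain at 1.5 nM, pre-incubated 15 min with compound at room temperature in 100 mM sodium acetate pH 5.5, 5 mM DTT, 0.00005% Triton X-100. Reaction started with 2 uM Z-FR-AMC; AMC fluorescence increase over 60 s gives rate.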
* marks the source's active call; other numbers are inactive results; ? = inconclusive; . = not tested or not shown; [ ] = another dose, or the depositor's remark. Unless noted, calls follow the shape of the dose curve; as a rule, active = well fitted curve in the direction sought with a large enough effect; inconclusive = small, poorly fitted or top-dose-only effect, or another doubt; inactive = no such curve, though single readings can be large; an effect the other way counts as inactive or inconclusive. Potency is read from the fitted curve at half-maximal effect.

entry	SMILES	Marburg entry inh	RE007 growth inh	NS1 inh	Cruzain inh Det	2A StopGo	LASV entry inh	SARS PLpro yeast	Cruzain noTriton
1	Cc1cc(O)c2c(C)c(CC(=O)N3CCCCC3)c(=O)oc2c1	15%[46.1 µM]	.	.	-1.9%	0%	?	.	5%
2	CC(=O)NCC1CCCN(Cc2cn(-c3ccccc3F)nc2-c2cc(C)sc2C)C1 (stereo not given)	?	7%	-2%	.	-5%	?	1%	.
3	Nc1ccccc1SCc1ccccc1Cl	?	0%	2%	.	36%[activator]	-4%	-1%	.
4	CCCC(=O)Nc1ccc(-c2nc3cc(C)ccc3o2)cc1	-29%[46.1 µM]	-23%	-70%	3.3%	29%	?	-5%	18%
5	COc1ccc(Cl)cc1NC(=O)Nc1cnccn1	.	-3%	-12%	.	-16%	.	2%	.
6	Cc1cc(Nc2ccccc2F)n2nc(-c3ccccc3)nc2n1	4%[46.1 µM]	.	.	-1.7%	-13%	4%[46.1 µM]	.	10%
7	COCCNC(=O)c1onc(CSc2cccc(C)c2)c1C(=O)O	.	-1%	-1%	1.1%	-2%	.	-1%	1%
8	CCO/C=C1/C(=O)N(c2ccccc2OC)C(=O)c2ccccc21	1%[46.1 µM]	-13%	13%	.	?	.	-7%	.
9	COc1ccc(CCNC(=O)c2ccccc2NC(=O)C2=C(C)OCCS2)cc1OC	.	-10%	15%	.	-20%	.	22%	.
10	C1=CCN(Cc2ccccc2)C1	.	1%	1%	.	-25%	.	6%	.
11	Cc1ccc(C)c(OCCCN2CCNCC2)c1	.	-14%	7%	.	-13%	.	-4%	.
12	COc1ccc(CNC(=O)C(C)n2nc(C)n3c(cc4occc43)c2=O)cc1 (stereo not given)	.	8%	5%	.	-15%	.	3%	.
13	O=C(/C=C/c1ccc(Br)cc1)NC1CCCCCC1	11%	-14%	-36%	2.8%	40%[activator]	?	-1%	-12%
14	Cc1cccc(NS(=O)(=O)c2ccc(NC(=O)N3CCCCC3)cc2)c1	?	-20%	7%	.	-26%	?	14%	.
15	Cc1cc(C)nc(-n2nc(C)c(C3(O)C(=O)Nc4ccc(F)cc43)c2N)n1 (stereo not given)	25%	-1%	-1%	0.6%	-17%	-12%	11%	-2%
16	CC(NC(=O)C1CCN(c2nnc(-n3cccc3)s2)CC1)C12CC3CC(CC(C3)C1)C2 (stereo not given)	3%	2%	-3%	0.8%	-8%	9%	-4%	1%
17	O=c1c2ccccc2[nH]c(=S)n1Cc1ccc2c(c1)OCO2	5%[46.1 µM]	-3%	.	.	30%	.	-1%	.
18	CCCC1CC(=O)NC1(C(=O)OCC)C(=O)OCC (stereo not given)	0%	-16%	.	.	-7%	3%	.	.
19	O=C(Nc1ccccc1Oc1ccccc1)C1CC1	7%	-10%	-11%	1.2%	-2%	6%	-1%	3%
20	CCOC(=O)C(C)/C(C)=N\Nc1ccc([N+](=O)[O-])cc1[N+](=O)[O-] (stereo not given)	?	1%	.	.	-30%	-9%[46.1 µM]	-1%	.

The results go on.
entry	SMILES	Marburg entry inh	RE007 growth inh	NS1 inh	Cruzain inh Det	2A StopGo	LASV entry inh	SARS PLpro yeast	Cruzain noTriton
21	CC(=O)N1CCn2c3ccc(C)cc3c3cccc1c32	2%	?	2%	-13%	55%[activator]	-5%	-17%	?
22	Cc1nc(CC(=O)Nc2nc(C(C)(C)C)cs2)cs1	?	-7%	1%	8.9%	-13%	?	12%	13%
23	Cc1ccc(CNS(=O)(=O)c2ccc3c(c2)NC(=O)CO3)cc1	.	19%	10%	.	24%	.	-3%	.
24	CCOc1ccccc1N(CC(=O)Nc1ccc(S(=O)(=O)N2CCOCC2)cc1)S(=O)(=O)c1ccccc1	-24%	1%	21%	-1.3%	-12%	-20%	-2%	-6%
25	COc1cccc(CNC(=O)Cc2c(C)c3c(cc(C)c4c(C)coc43)oc2=O)c1	1%[46.1 µM]	.	.	-1.5%	-3%	11%[46.1 µM]	.	7%
26	Cc1ccccc1C(=O)N1CCC(C(=O)OCc2ccccn2)CC1	5%	-16%	.	.	3%	-24%	-2%	.
27	Cc1cc(C(=O)N2CCN(c3ccc(F)cc3)CC2)on1	.	3%	-7%	.	-6%	.	5%	.
28	N/C(=N\OC(=O)c1ccc2c(c1)OCO2)c1ccc(Br)cc1	?	-3%	-28%	.	29%	?	-3%	.
29	COC1CCCCC1Nc1ccc(C)c(C)c1 (stereo not given)	-7%	-4%	-7%	0.8%	.	16%	18%	5%
30	Cc1ccc(NC(=O)Cn2c(=O)oc3cc(S(=O)(=O)N4CCCCC4)ccc32)c(Cl)c1	-21%[46.1 µM]	.	.	-2.6%	?	.	.	5%
31	CCN1CCN(C(=O)c2cnn(-c3cccc(C)c3)c2C2CCN(C(=O)OC(C)(C)C)CC2)CC1	.	.	.	0.4%	-6%	?	.	-2%
32	Cc1cccc(C(P(=O)(c2ccccc2)c2ccccc2)P(=O)(c2ccccc2)c2ccccc2)n1	-16%	5%	6%	-0.6%	73%[activator]	-4%	6%	-2%
33	CN(C)CCN(C(=O)c1ccc2ccccc2c1)c1nc2ccc(F)cc2s1	.	-16%	-42%	.	-8%	.	-15%	.
34	O=C(Nc1ccc(Oc2ccccc2)cc1)c1ccco1	-5%	?	-107%	-2.6%	26%	-25%	.	-5%
35	O=C(Nc1cccc(NC(=O)c2ccc(Br)o2)n1)c1ccc(Br)o1	15%	11%	3%	-1.9%	3%	?	25%	-10%
36	Cc1ccc(C(=O)Nc2cc(-c3nc4ncccc4o3)ccc2C)c(C)c1	2%[46.1 µM]	.	.	-1.2%	-4%	0%[46.1 µM]	.	9%
37	Fc1cccc(C2NCc3ccccc3-n3cccc32)c1 (stereo not given)	?	-13%	8%	.	24%	-10%[46.1 µM]	1%	.
38	CCC1CCCCN1Cc1nc2c(c(=O)n(C)c(=O)n2C)n1CCC(C)C (stereo not given)	.	-1%	-104%	4.5%	-24%	.	-3%	4%
39	O=C(CN1CCOCC1)N/N=C/C(Br)=C\c1ccccc1	23%	-9%	.	.	19%	14%	-3%	.
40	Cc1ccc2[nH]c(CSc3nnc(COc4ccccc4C)n3C)cc(=O)c2c1	.	.	.	0.0%	?	-2%[46.1 µM]	.	-1%

Next part:
entry	SMILES	Marburg entry inh	RE007 growth inh	NS1 inh	Cruzain inh Det	2A StopGo	LASV entry inh	SARS PLpro yeast	Cruzain noTriton
41	Cc1ccccc1NC(=O)CS(=O)(=O)c1cccc2nsnc12	.	.	.	-1.5%	16%	5%[46.1 µM]	.	0%
42	CC1CC(C)CN(S(=O)(=O)c2ccc3c(c2)C(C)(C)C(=O)N3C)C1 (stereo not given)	.	8%	1%	.	20%	.	22%	.
43	Cc1ccc(C)c(Nc2ccc(C(=O)NCCc3ccccc3)cn2)c1	23%	-20%	-20%	-7.9%	-8%	3%	-65%	-10%
44	Cc1ccc2cc(CN(CC3CCCO3)C(=S)Nc3ccccc3)c(=O)[nH]c2c1C (stereo not given)	?	3%	?	-5.6%	-23%	?	-4%	3%
45	O=c1[nH]c2ccc(S(=O)(=O)Nc3ccc(Br)cc3)cc2[nH]1	-4%[46.1 µM]	-1%	-16%	.	50%[activator]	-1%[46.1 µM]	?	.
46	Cc1cc(C(=O)NCCCN2CCCC2=O)no1	4%	17%	-16%	-2.8%	-11%	4%	5%	9%
47	Cc1ccc(C)c(N2CCN(C(=O)C(Cc3ccccc3)n3cccc3)CC2)c1 (stereo not given)	-5%	8%	0%	1.6%	?	.	-16%	-10%
48	CCOc1cc(C2CC(=O)c3c(ccc4ccccc34)N2)ccc1O (stereo not given)	-1%	-5%	20%	-3.3%	-26%	?	-4%	-2%
49	CCCCN(CC)c1nc(-c2ccccc2F)nc2ccccc12	.	.	.	-9.4%	-14%	12%[46.1 µM]	.	-3%
50	O=C(CCN1C(=O)S/C(=C/c2ccc(F)cc2)C1=O)Nc1ccc(O)c(C(=O)O)c1	.	4%	18%	.	0%	.	6%	.
51	Cc1ccc(NC(=O)Cn2nnc(-c3ccccc3NC(=O)c3cccs3)n2)cc1	.	-7%	3%	0.0%	-12%	0.58µM*	-4%	-25%
52	COc1ccc(N2CCN(CCNC(=O)C3CC(=O)N(C4CCCC4)C3)CC2)cc1 (stereo not given)	-3%	6%	-11%	1.0%	.	-13%	3%	-6%
53	CCOC(=O)Cn1cc(/C=C(/C#N)C(=O)NC(C)C)c2ccccc21	11%[46.1 µM]	4%	-7%	.	3%	12%[46.1 µM]	0%	.
54	COc1ccccc1CNS(=O)(=O)c1ccc2c(c1)N(C(C)=O)CCO2	.	-1%	16%	.	23%	.	16%	.
55	CCOC(=O)c1c(C)nc2sc(C(=O)Nc3ccccc3)c(N)c2c1-c1ccc(OC)cc1	?	18%	27%	2.4%	0%	8.9µM*	4%	23%
56	CCOc1cccc(N)c1	.	-16%	.	0.6%	-24%	.	0%	-5%

Structural class, the entries above containing a COOH group (two)
entry	SMILES	Marburg entry inh	RE007 growth inh	NS1 inh	Cruzain inh Det	2A StopGo	LASV entry inh	SARS PLpro yeast	Cruzain noTriton
7	COCCNC(=O)c1onc(CSc2cccc(C)c2)c1C(=O)O	.	-1%	-1%	1.1%	-2%	.	-1%	1%
50	O=C(CCN1C(=O)S/C(=C/c2ccc(F)cc2)C1=O)Nc1ccc(O)c(C(=O)O)c1	.	4%	18%	.	0%	.	6%	.

Source: PubChem
